Mtb MbtI inh = inhibitors of Mycobacterium tuberculosis siderophore enzyme MbtI. P9WFX0. AID 493033. inhibition, %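 (about 17 µg/mL by stock and volumes)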. 0.89% of 100,000 active. purified MbtI enzyme, fluorescence intensity read-out;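 active means above 50% in both replicates, above 80% if mildly self-fluorescent; inactive means the rest, strongly fluorescent compounds included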;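 further: 0% = mean of negative and 100% = mean of positive controls; one replicate is shown; some compounds called inactive have numbers as strong as hits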
Target sequence (P9WFX0 whole entry, looked up): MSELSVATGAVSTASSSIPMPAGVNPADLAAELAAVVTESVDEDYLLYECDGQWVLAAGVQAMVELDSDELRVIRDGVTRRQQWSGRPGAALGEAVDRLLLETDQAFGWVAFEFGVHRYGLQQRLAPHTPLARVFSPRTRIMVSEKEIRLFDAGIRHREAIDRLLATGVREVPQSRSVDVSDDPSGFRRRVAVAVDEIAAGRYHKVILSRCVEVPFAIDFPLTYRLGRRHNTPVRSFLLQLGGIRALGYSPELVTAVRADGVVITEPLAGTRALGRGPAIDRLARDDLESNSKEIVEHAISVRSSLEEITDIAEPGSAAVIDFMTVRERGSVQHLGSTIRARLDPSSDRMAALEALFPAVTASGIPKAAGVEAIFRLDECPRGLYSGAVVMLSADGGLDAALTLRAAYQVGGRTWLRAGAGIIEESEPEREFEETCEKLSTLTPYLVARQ
MenB inh = blocks the Mycobacterium tuberculosis MenB enzyme; P9WNP5; MenB enzyme assay, absorbance read-out; some hits fall short of the stated cut; inhibition, %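 (about 12 µg/mL by stock and volumes)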; 0.43% of 100,000 active; AID 540299;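 active means mean of two replicates above 30%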;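 further: 0% = no compound and 100% = wells with inactive enzyme; the first replicate is given; strong numbers were not always called active; inactives centre near -10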
Polio RdRp inh = poliovirus RNA polymerase inhibition | P03300 | poliovirus polymerase elongation, fluorescence polarization; active compounds read low | % elongation, % (compound at 16.7 µg/mL) | 0.66% of 150,000 active | AID 588519; in the data active means % elongation below about 90%; further: some results filed as inactive read as strong as hits
Target sequence (P03300 1749-2209 limits assumed): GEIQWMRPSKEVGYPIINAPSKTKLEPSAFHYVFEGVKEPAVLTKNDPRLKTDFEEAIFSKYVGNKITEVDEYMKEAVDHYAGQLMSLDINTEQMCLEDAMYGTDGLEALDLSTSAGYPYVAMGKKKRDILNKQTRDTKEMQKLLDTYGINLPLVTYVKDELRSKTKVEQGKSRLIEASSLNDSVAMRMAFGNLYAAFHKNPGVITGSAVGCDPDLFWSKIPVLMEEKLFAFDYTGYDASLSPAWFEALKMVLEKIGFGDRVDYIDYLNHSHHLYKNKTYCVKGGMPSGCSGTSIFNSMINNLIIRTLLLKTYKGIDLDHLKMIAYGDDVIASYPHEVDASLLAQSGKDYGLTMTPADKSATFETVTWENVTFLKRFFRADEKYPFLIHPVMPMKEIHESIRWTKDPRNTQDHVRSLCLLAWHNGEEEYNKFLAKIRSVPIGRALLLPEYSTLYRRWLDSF
Polio RdRp inh intensity = recorded beside Polio RdRp inh, whose call it bears; % elongation; measured here: total intensity read-out; formula for this scale not given here;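 total fluorescence in place of polarization; lower means less elongation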
Active calls of the source: *; i = inactive; . = not tested or not shown; & = joins results of further samples.

SMILES	Mtb MbtI inh	MenB inh	Polio RdRp inh	Polio RdRp inh intensity
CCn1cc(C(=O)NC2CCCCCC2)c(=O)c2cc(S(=O)(=O)N(C)C)ccc21	-2	-10	102	107
CCN(CC)P(=S)(c1nc2ccccc2n1CC)N(CC)CC	-8	-32	100	102
CC(=O)NC1CCC(C(=O)O)(c2ccccc2)C1 (stereo not given)	.	4	101	107
O=C1Cc2cc(C(=O)CSc3ccc4c(c3)OCCCO4)ccc2N1	64	-23	104	101
CC(=O)Nc1ccc2nc3c(cc2c1)[nH]c1ccccc13	-57	-51	100	102
Cc1cc(NC(=O)COC(=O)COc2ccc3c(c2)CCC3)no1	5	8	103	98
Cc1cc(-c2ccsc2)n[nH]c1=O	1	-10	103	103
CCC(Sc1nc2ncccc2o1)C(=O)Nc1ccccc1C(F)(F)F (stereo not given)	-1	14	101	101
CCOC(=O)c1cn2c3c(c(F)c(F)cc3c1=O)OCC2C (stereo not given)	-19	-21	111	108
N#CCc1nnc(N2CCOCC2)n1-c1ccccc1	-7	9	105	107
CC(C)Cn1c(SCCc2ccccc2)nnc1-c1cccc(S(=O)(=O)N2CCOCC2)c1	-66	-33	107	107
C/C(=N\OCc1nnc(-c2cccs2)o1)c1cc2ccccc2o1	3	-39	98	92

An excerpt of these results, with two lines to a compound:
The line under a structure holds: Mtb MbtI inh, MenB inh, Polio RdRp inh, Polio RdRp inh intensity
N#CCc1nnc(N2CCOCC2)n1-c1ccccc1
 : -7, 9, 105, 107
CCOC(=O)c1cn2c3c(c(F)c(F)cc3c1=O)OCC2C (stereo not given)
 : -19, -21, 111, 108

Carrying on:
SMILES	Mtb MbtI inh	MenB inh	Polio RdRp inh	Polio RdRp inh intensity
COc1ccccc1OCC(O)CO (stereo not given)	-11&-10	-1&9	101&100	102&102
Cc1noc(C)c1COc1ccc(C(=O)NC2=NCCS2)cc1	29	-26	100	102
O=C1CCN(CC(=O)c2ccc3cc[nH]c3c2)CC1	54	-7	100	102
CCn1c(C)[n+](CC)c2ccc(S(N)(=O)=O)cc21	-5	6	100	102
COc1ccc(-c2noc(CSc3nnc(-c4ccncc4)n3CC(C)C)n2)cc1	-4	1	105	101
O=C(NCCCc1ccccc1)C1c2ccccc2Oc2ccccc21	.	-11	100	105
O=C(CSc1nc(N2CCCCC2)nc(N2CCCCC2)n1)N1CCc2ccccc21	-7	4	100	102
Cc1cnc(=O)[nH]c1SCc1cccc(C(F)(F)F)c1	5	-17	105	108
O=c1c2c([nH]c3ccccc13)CCC2	24	0	101	105
COc1ccccc1C=NC12CN3CN(CN(C3)C1)C2	36	-21	97	101
CCCCCc1cc(O)c2c(c1)OC(C)(C)[C@@H]1CCC(C(=O)O)=CC21 (stereo not given in full)	-12	-1	102&103	104&102
Cc1ccc2onc(CNC(=O)N3CCCCCC3)c2c1	2	-27	105	100

The list goes on; it opens with the five that closed the last part.
SMILES	Mtb MbtI inh	MenB inh	Polio RdRp inh	Polio RdRp inh intensity
Cc1cnc(=O)[nH]c1SCc1cccc(C(F)(F)F)c1	5	-17	105	108
O=c1c2c([nH]c3ccccc13)CCC2	24	0	101	105
COc1ccccc1C=NC12CN3CN(CN(C3)C1)C2	36	-21	97	101
CCCCCc1cc(O)c2c(c1)OC(C)(C)[C@@H]1CCC(C(=O)O)=CC21 (stereo not given in full)	-12	-1	102&103	104&102
Cc1ccc2onc(CNC(=O)N3CCCCCC3)c2c1	2	-27	105	100
C=CCn1c(C)cc(C(=O)COC(=O)c2ccc3c(c2)NC(=O)CS3)c1C	40	4	103	108
Cc1ccc(S(=O)(=O)N2CCN(CC(=O)N3CCCC3)CC2)c(C)c1	2	-9	106	114
C=CCC1N(c2ccccc2)C(=O)C2C(C(=O)O)C3C=CC21O3 (stereo not given)	6	-57	102	101
O=C(O)c1cccc2cccc(S(=O)c3ccccc3)c12 (stereo not given)	8	-14	104	101
CC1SC(/N=C/c2ccc(N(C)C)cc2)=NNC1=O (stereo not given)	.	-38	104	116
Cc1noc2nc(-c3cccnc3)cc(C(F)(F)F)c12	10	-8	105	115
O=C(C1=NOC2(C(=O)c3ccccc3C2=O)C1c1ccccc1)c1ccccc1 (stereo not given)	-11	8	95	98
CCn1c(=O)/c(=C\c2ccc(Cl)cc2)s/c1=C(/C#N)c1nc2ccccc2n1C	8	-44	105	132
CC1CCN(C(=O)C2Cc3ccccc3CN2S(=O)(=O)c2ccc(F)cc2)CC1 (stereo not given)	-11	.	103	103
COc1c(F)c(F)c(C(=O)O)c(Nc2ccc(C)cc2C)c1F	-3	-17	100	100
CC(C)(C)C(=O)C1C2CCC1C(O)C2 (stereo not given)	.	-17	101	101
O=C(NC1CCCc2ccccc21)c1ccc(CS(=O)c2ccc(Br)cc2)o1 (stereo not given)	-8	-24	100	103
O=C(O)c1ccc(-n2[nH]c(=S)sc2=S)cc1	-1	5	101	101
CSc1nnc(Cn2c(=O)sc3ccccc32)n1-c1ccccc1C	0	-9	99	98
Cc1cccc(NC(=O)CCn2c(=O)oc3ccccc32)c1	3	-54	103	101
CCOc1ccc(C(=O)Nc2c(C)nc3nc[nH]n3c2=O)cc1OCC	0	5	100	102
O=C(c1ccc2c(=O)n3c(nc2c1)CCCCC3)N1CCCCC1	3	6	101	103
CCC(C)C(NC(=O)c1ccccc1NC(=O)c1ccc(OC)cc1)C(=O)N1CCOCC1 (stereo not given)	-11	-19	103	108
Cc1ccc(NNC(=O)c2cccnc2Oc2ccccc2)cc1	4	5	101	103
COC(=O)C1=CN(CC2CCCO2)C=C(C(=O)OC)C1c1ccccc1 (stereo not given)	.	-36	103	92
CC1=CC(C)(C)NC(=S)N1C(C)c1ccccc1 (stereo not given)	.	-7	101	104
COc1ccc(CCNC(=O)Nc2ccc(Cl)cc2)cc1OC	.	-18	98	101
CC(Sc1nc2ccccc2[nH]1)c1nc2ccccc2c(=O)[nH]1 (stereo not given)	3	-4	102	109
CC(C)N(Cc1nc(-c2ccccc2)no1)C(=O)c1ccc2c(c1)OCO2	-8	-23	100	101
O=C(NCCc1cccs1)N1CCN(C2c3ccccc3-c3ccccc32)CC1	-1	18	108	106
O=C(O)CNC(=O)/C=C\c1ccccc1	4	5	100	100
O=c1[nH]c2ccccc2c2nc(-c3ccccc3)nn12	-23	-2	100	100
Cc1cc(NC(=O)c2cccc(S(=O)(=O)N3CCOCC3)c2)no1	.	-5	100	101
O=C(CCC1COc2ccccc2O1)Nc1ccc(C(=O)N2CCCC2)cc1 (stereo not given)	-11	5	106	103
Cc1ccc(Cn2ccsc2=NC(=O)COC(=O)c2ccc(-n3cnnn3)cc2)cc1	22	-13	.	.
OCCN1CCN(c2nc(-c3ccccc3)c3cc(Cl)ccc3n2)CC1	-21	-43	101	104
CCOc1ncccc1C(=O)N1CCN(S(=O)(=O)c2ccc(Br)cc2Cl)CC1	-22	-13	94	79
CCc1nnc2sc(-c3cccs3)nn12	11	-10	105	102
CCCC(=O)N(c1ccccc1)C1CC(C)Nc2ccccc21 (stereo not given)	-11	-19	100	101
O=c1c(-c2ccccc2)c(O)cc(-c2ccc(F)cc2)n1-c1ccccc1	i	-24	103	108
Cn1nc2c3c(cccc3c1=O)-c1ccccc1-2	-20	-3	.	.
COc1ccccc1C(OC(=O)c1ccco1)C(=O)NCC1CCCO1 (stereo not given)	-14	-16	102	100
CCCN(C(=O)c1cccs1)c1nc(-c2ccccc2)cs1	0	11	100	101
Cc1ccc(C)c(NC(=O)c2nccnc2COC(=O)c2cccc(F)c2)c1	-10	-23	105	106
O=C(CN1C(=O)CC(c2ccccc2)Sc2ccccc21)c1ccccc1 (stereo not given)	6	-22	103	105
C=CCNc1nc(C(=O)OCc2cccc(S(=O)(=O)N(C)C)c2)cs1	-3	-5	101	112
O=c1c2ccccc2nc(-c2ccccc2)n1C1CCS(=O)(=O)C1 (stereo not given)	0	3	101	105
Cc1occc1-c1nnc(SCC(=O)NCC(=O)Nc2ccc(F)cc2)n1Cc1ccccc1	-6	-14	104	105
Cc1ccc(-n2nc3c(N4CCC(C(=O)N5CCCC5)CC4)nnc(C)c3c2C)cc1	-11	3	102	100
O=C1c2cccnc2C(=O)N1Cc1ccc(S(=O)(=O)N2CCOc3ccccc3C2)cc1	9	7	102	104
CC(OC(=O)c1cccc(N(C)C)c1)C(=O)c1ccc(Cl)cc1 (stereo not given)	-14	-24	104	107
CC(C(=O)OCC(=O)N1CCCC1)N1C(=O)c2ccccc2C1=O (stereo not given)	-1	5	106	111
O=C(NC(=S)N1CCN(C(=O)c2ccco2)CC1)c1ccc(S(=O)(=O)N2CCOCC2)cc1	-4	-19	100	100

Reprinted at random: 2 compounds from above
SMILES	Mtb MbtI inh	MenB inh	Polio RdRp inh	Polio RdRp inh intensity
O=C1c2cccnc2C(=O)N1Cc1ccc(S(=O)(=O)N2CCOc3ccccc3C2)cc1	9	7	102	104
Cc1ccc(-n2nc3c(N4CCC(C(=O)N5CCCC5)CC4)nnc(C)c3c2C)cc1	-11	3	102	100

(next part)
SMILES	Mtb MbtI inh	MenB inh	Polio RdRp inh	Polio RdRp inh intensity
COc1ccc(OC2CCN(S(=O)(=O)c3ccccc3)CC2)cc1	-4	15	101	100
Cc1ccc(S(=O)(=O)N2CCNCC2)cc1	-2	-11	100	101
Cc1ccc(S(=O)(=O)NC2CCSC2=O)cc1 (stereo not given)	6	10	100	102
CC(C)N(Cc1ccccc1)C(=O)CN1C(=O)CSc2cc(S(=O)(=O)N3CCCC3)ccc21	-7	4	103	101
COc1ccc(-n2cc(C(=O)NC3CCCCCCC3)nn2)cc1	-18	0	104	102
CCOc1cc(-c2cc(C)c3c(ccc4ccccc43)n2)ccc1O	59	-32	102	107
COc1cccc(/C=C2/CCC/C(=C\c3cccc(OC)c3OC)C2=O)c1OC	-25	-15	104	105
CCCCCCCC/C=C\CCCCCCCCOC[C@H](COP(=O)([O-])OCC[N+](C)(C)C)OC(C)=O	-19	1	101&102	104&103
O=C(CN1CCN(Cc2ccccc2)CC1)N1CCCCCC1	-7	40	100	102
Nc1cccc(OCc2ccccc2F)c1	-5	4	101	104
CNC(=O)Nc1nncnc1C(=O)O	-1	-7	102	102
N=C1/C(=C/c2ccc(OCCOc3ccccc3)c(Cl)c2)C(=O)N=C2SC=CN12	2	-7	101	99
S=c1nccc(-c2ccc3c(c2)CCO3)[nH]1	24	-40	97	103
O=S(=O)(Cc1cccc(Cl)c1)c1nc(C(F)(F)F)cc(C(F)(F)F)n1	48	-3	102	104
COc1ccccc1C1C(C#N)=C2N=C(N)c3ccccc3N2C2=C1C(=O)CCC2 (stereo not given)	6	-49	98	96
N#CC(C#N)=Cc1c(-c2ccccc2)nc2ccccn12	-7	-292	92	96
S=C(c1ccc(Cl)cc1)N1CCCCC1	39	-75	99	97
Cc1ccc(NC(=O)COC(=O)C2CCC2)cc1Cl	-6	.	103	105
COC(=O)COc1cc(NO)ccc1N=O	34	-35	100	111
Cc1cc(COC(=O)c2ccc(OCc3ccccc3)cc2)no1	-4	-27	101	103
CC(Sc1nncn1-c1ccccc1)C(N)=O (stereo not given)	-9	-7	105	113
OC1CCN(C(=S)Nc2ccccc2)CC1	-9	-39	.	.
Cc1cc(NC(=O)CSCC(=O)O)n(C)n1	3	3	99	96
CN(C1CCCCC1)S(=O)(=O)c1csc(C(N)=O)c1	-10	-2	100	101

A few values from the list.
For MenB inh, COc1ccccc1C1C(C#N)=C2N=C(N)c3ccccc3N2C2=C1C(=O)CCC2 (stereo not given) has -49
For Mtb MbtI inh, COC(=O)COc1cc(NO)ccc1N=O has 34
For Mtb MbtI inh, N#CC(C#N)=Cc1c(-c2ccccc2)nc2ccccn12 has -7
For Polio RdRp inh, Cc1ccc(NC(=O)COC(=O)C2CCC2)cc1Cl has 103
For Mtb MbtI inh, CC(Sc1nncn1-c1ccccc1)C(N)=O (stereo not given) has -9

Additional structures:
SMILES	Mtb MbtI inh	MenB inh	Polio RdRp inh	Polio RdRp inh intensity
COc1ccccc1CN1CC(C(=O)NC2CCCCC2)CC1=O (stereo not given)	0	4	102	108
CC(C)C(=O)Nc1cnc2ccccc2c1	.	-3	103	109
O=C(OCC1C(COC(=O)C2CC2)C1(Cl)Cl)C1CC1 (stereo not given)	2	.	102	102
Cc1cccc(CSC2=NCCN2C(=O)c2cccs2)c1	-2	-26	104	107

Source: PubChem BioAssay (ICCB-Longwood Screening Facility, Harvard Medical School)
